T cruzi inh = T. cruzi replication inhibition; inhibition, % (concentration not given with the values); 300,000 compounds, 1.4% hits; T. cruzi beta-gal in NIH3T3, luminescence, 90 h; AID 1885;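 active = mean inhibition across valid replicates above about 55%, limit read from the data; inconclusive = mean below that limit but half or more replicates reach it; inactive = mean below it, under half of replicates reach it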;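 note: signal also drops with host cell toxicity which is not excluded here; 0% = plate median of DMSO wells and 100% = zero luminescence signal; higher percent means less beta-gal luminescence so fewer parasites; stock transfer was 50 nL into about 50 µL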
rRNA inh HTS = selective bacterial rRNA inhibition in E. coli; E. coli WT GFP vs humanized-ribosome RFP mutants, fluorescence, 24 h; active compounds read low; DMSO median 0, no signal -100; GFP signal change (wild-type ribosome), % (no concentration beside the values); 350,000 compounds, 1.6% hits;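 active = significant combined selectivity score with lowered wild-type GFP, culture density cut under 30%, mutant RFP and density less affected; inactive = any of these conditions unmet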; note: one replicate is shown; some compounds called inactive have numbers as strong as hits
ALR H2O2 inh = blocks human ALR sulfhydryl oxidase activity; purified ALR, DTT oxidation, H2O2 HRP-luminol luminescence; inhibition, % (no concentration beside the values); 290,000 compounds, 3.8% hits; AID 485317;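 active = mean and each replicate at 75% or more; inconclusive = only one of the two met; inactive = neither met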;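 note: stock transfer was 7.5 nL into about 7.5 µL; 0% = neutral wells and 100% = wells with inactivated enzyme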
Target sequence (P55789 whole entry, looked up): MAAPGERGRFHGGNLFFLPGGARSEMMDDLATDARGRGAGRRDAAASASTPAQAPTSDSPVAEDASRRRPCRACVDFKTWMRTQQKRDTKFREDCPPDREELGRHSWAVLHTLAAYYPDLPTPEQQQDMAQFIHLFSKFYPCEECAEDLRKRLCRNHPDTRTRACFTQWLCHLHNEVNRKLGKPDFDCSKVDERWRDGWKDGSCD
Beta2AR agonist = human beta-2 adrenergic receptor agonism by FAP | P07550 | Am2.2-beta2AR cells, FAP receptor internalization, flow cytometry; reference of the scale not given here | response, % (concentration not given with the values) | 340,000 compounds, 0.43% hits | AID 504454;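 active = response above a set limit, near 3 SD of response in nonfluorescent compounds, cut at about 42% in these data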;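 note: stock transfer was 100 nL into about 11 µL; a reference agonist was the positive control; negative values mostly stem from fluorescent compounds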
Target sequence (P07550 whole entry, looked up): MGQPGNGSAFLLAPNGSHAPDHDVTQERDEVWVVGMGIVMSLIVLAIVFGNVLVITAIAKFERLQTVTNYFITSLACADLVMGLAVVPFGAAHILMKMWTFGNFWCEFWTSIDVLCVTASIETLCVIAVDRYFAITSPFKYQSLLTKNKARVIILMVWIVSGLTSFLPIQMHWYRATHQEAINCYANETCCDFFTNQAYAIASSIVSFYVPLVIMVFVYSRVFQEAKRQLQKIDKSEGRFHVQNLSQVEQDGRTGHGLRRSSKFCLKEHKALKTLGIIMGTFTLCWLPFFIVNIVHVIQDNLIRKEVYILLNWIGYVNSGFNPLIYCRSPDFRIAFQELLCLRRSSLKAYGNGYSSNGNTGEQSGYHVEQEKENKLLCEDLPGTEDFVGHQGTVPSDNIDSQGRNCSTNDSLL
Beta cell apopt = blocks beta cell apoptosis; INS-1E cytokine-induced death, ATP luminescence, 48 h; percent of positive-control rescue, neutral wells zero; protection from apoptosis, % (concentration not given with the values); 300,000 compounds, 0.8% hits; AID 435005;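 active = all replicates at 75% or more, or half of them and the mean; inconclusive = half reach 75% but not the mean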;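 note: 0% = cytokine-treated negative control wells and 100% = positive control rescue; higher means more ATP so stronger rescue from cytokine killing; wells of about 40 µL received 100 nL stock; the first replicate is given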
Calb FLC = C. albicans growth modulation with fluconazole. C. albicans CaCi-2 (fluconazole-resistant clinical isolate) + fluconazole, Alamar Blue growth, 48 h. growth inhibition, % (no concentration beside the values). 300,000 compounds, 0.57% hits;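 active = most replicates above 75%; inconclusive = exactly half above 75%; inactive = most below 75%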;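 note: all wells also contain fluconazole at 8 µg/ml as a sub-toxic cotreatment; 0% = median of DMSO wells and 100% = median of geldanamycin control wells; wells of about 8 µL received 7.5 nL stock; the first replicate is given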
LANA-H2A inh = blocks KSHV LANA binding to histone H2A/H2B; Q9QR71; cell-free LANA-H2A/H2B peptide, fluorescence polarization; inhibition, % (test concentration not listed); 320,000 compounds, 0.6% hits; AID 2629; in the data active = inhibition mostly above about 10%, no sharp cut-off; inactive = mostly below about 6.7%;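 note: stock transfer was 7.5 nL into about 10 µL; 0% = median of vehicle wells and 100% = median of positive control wells; one replicate is shown; the record names a cut of 25% in any replicate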
A1 inh = inhibitors of the anti-apoptotic protein A1, read as caspase activation; caspase activation, % (concentration not given with the values); 330,000 compounds, 0.066% hits; AID 2462; MEF A1-2A-BIM cells, Caspase-Glo 3/7 luminescence, 3 h; percent of clofoctol response, vehicle zero;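 active = over half of replicate activation scores above 10%, or exactly half above 10 with the replicate mean above 10; inconclusive = replicate mean below 10 yet half the replicates above 10; inactive = over half of replicates below 10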;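 note: wells of about 30 µL received 50 nL stock; many hits fall short of the cut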
rRNA inh HTS OD600 = second read-out of rRNA inh HTS, no call of its own (marks repeat the call); OD600 change, %; measured here: OD600 growth;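 optical density of the mix in the first replicate; 0 = DMSO median and -100 = no signal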
rRNA inh HTS RFP = recorded beside rRNA inh HTS, whose call it bears; RFP signal change, %; measured here: RFP humanized mutant strains;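 first replicate; 0 = DMSO median and -100 = no signal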
* marks the source's active call; other numbers are inactive results; ? = inconclusive; / = not tested or not shown; & = joins results of further samples. The list is partial; rates above refer to the full screens.

SMILES	T cruzi inh	rRNA inh HTS	rRNA inh HTS OD600	rRNA inh HTS RFP	ALR H2O2 inh	Beta2AR agonist	Beta cell apopt	Calb FLC	LANA-H2A inh	A1 inh
CCCCCCC1CC(C)(/C(C)=N/NC(N)=O)OC1=O (centres undefined)	6	1	2	-8.3	-9	-4	-8	-4	-0.4	0.4
COC(=O)c1cc(S(=O)(=O)Nc2cc(OC)cc(OC)c2)cn1C	1	1	-18	-9.7	-1	11	-1	7	-4.7	0.1
COc1ccc(/C=c2/sc3nc(-c4ccccc4)c(-c4ccccc4)n3c2=O)cc1	-29	/	/	/	4	8	-4	22	1.7	0.4
Cc1ccc(C(=O)/C=C/c2ccc(-c3ccc(C)cc3)o2)cc1	30	/	/	/	/	-18	-3	-17	-2.8	0.2
Cc1cnc(C(=O)OCC(=O)NCc2ccc(Cl)cc2)cn1	/	7	7	-0.7	3	-4	-1	/	-11	-0.3
COc1cc(NC(=O)c2cc(C)on2)cc(C(=O)Nc2cccc(C(F)(F)F)c2)c1	17	-19&-15	-40&-36	9.5&8.6	-2	-7	38	45	-3.2	-1.2
C[C@@H](CN1C(=O)C(=O)NC[C@@H]1C)NC(=O)CC12CC3CC(CC(C3)C1)C2	-4	7	1	-2.0	-2	-1	-2	6	6.7	-0.6
O=C(COc1ccc(S(=O)(=O)NCc2ccccc2)cc1Cl)NCc1ccccn1	2	-5	-9	2.3	-6	-2	-4	10	-3.8	-0.6
Cc1ccc(NC(=O)COC(=O)C2CC2(Cl)Cl)cc1C (centres undefined)	-5	12	1	1.3	10	2	-5	-3	2.1	-0.1
O=S(=O)(c1cccc(C(F)(F)F)c1)N1CCN(c2ccccc2)CC1	1	/	/	/	-1	8	-5	-10	-4.1	-0.4
CC(C)CC1(C)NC(=O)NC1=O (centres undefined)	-15	/	/	/	-10	22	-2	-1	-6.2	0.5
Cc1c(/C(O)=C2/C(=O)C(=O)N(CCN(C)C)C2c2ccc(C(C)C)cc2)cnn1-c1ccccc1 (centres undefined)	4	7	-16	-1.1	-4	-14	-10	8	2.3	1.0
CS(=O)(=O)c1ccc2nc(NC(=O)CN3CCC(Cc4ccccc4)CC3)sc2c1	4	-7	-9	1.4	6	9	/	54	-1.5	-0.7
Cc1occc1C(=O)Nc1ccc(S(=O)(=O)N2CCN(C)CC2)cc1	0	/	/	/	-3	3	0	?	2.3	0.2
COc1ccc(/C=N/N2CCN(c3ccc(Cl)cc3)CC2)cc1O	22	-1	4	-2.9	62	7	-1	10	-4.0	-0.3
Nc1nonc1-n1nnc(C(=O)N/N=C/c2ccoc2)c1CSc1ccccc1	-9	/	/	/	-25	-14	-6	-1	3.8	-0.1
O=C(N/N=C\c1ccoc1)c1ccco1	3	3	8	-0.8	-4	-3	-2	-7	2.4	-0.4
O=[N+]([O-])c1cccc(C(=Nc2ccccc2)NO)c1	-20	/	/	/	60	-8	-5	-20	-1.4	-0.7
CCOC(=O)c1cnn(-c2cc(C)nc3c(-c4ccccc4)cnn23)c1N	13	/	/	/	/	-10	/	0	0.6	-0.9
CC1CCCCN1C(=O)CSc1nc2ccccc2[nH]1 (centres undefined)	3	30	4	0.3	-18	-3	-6	-8	3.4	0.6
O=C(CSc1ccccn1)Nc1cccc(NC(=O)CSc2ccccn2)n1	0	8	-2	-2.3	-6	-4	3	-6	2.4	-0.1
COCCc1ncc(CN2CCC(C(=O)Nc3cccc(-c4cscn4)c3)CC2)cn1	16	-9	3	-3.0	1	0	1	-2	1.5	0.2
CCOC(=O)/C(=N/Nc1ccc(OC)cc1)N1CCCc2ccccc21	27	5	12	-4.0	/	5	7	-4	-1.0	0.3
Cc1ccc(S(=O)(=O)NCC(=O)N(CC(=O)NCc2ccco2)Cc2ccc(F)cc2)cc1	-3	3	5	-0.5	/	-7	-2	-8	-4.6	-0.3
O=C(Nc1cccc2cccnc12)c1ccccc1Br	2	-25*	5.3*	-0.4*	-2	5	0	-1	8.3	2.0
SMILES	T cruzi inh	rRNA inh HTS	rRNA inh HTS OD600	rRNA inh HTS RFP	ALR H2O2 inh	Beta2AR agonist	Beta cell apopt	Calb FLC	LANA-H2A inh	A1 inh
O=S(=O)(c1ccccc1)c1cnn(-c2ccccc2)c1-c1ccc(F)cc1	-9	/	/	/	-3	2	16	-1	-2.8	0.4
FC(F)Sc1ccc(NC(=S)NCc2ccccc2)cc1	11	-61	-80	-22	30	1	-3	-13	-5.8	1.0
Cc1cc(N/C=C\C(=O)c2ccc(Cl)c(Cl)c2)no1	-8	/	/	/	-2	-10	3	9	-0.4	-2.2
Cc1cc(C(C)(C)C)oc1C(=O)N(CC(=O)NC1CCCC1)Cc1ccccc1Cl	26	-21	-16	4.7	-9	7	13	7	-0.1	0.2
Cc1ccccc1S(=O)(=O)Oc1ccccc1C(=O)Oc1ccccc1	-30	/	/	/	0	-9	-3	5	6.1	0.6
COc1ccc(OCC(=O)NS(=O)(=O)c2ccccc2)cc1	-2	9	9	0.2	-1	2	-3	-4	0.6	-0.5
Cc1cc(C(C)(C)C)oc1C(=O)N(CC(=O)NC1CCCC1)c1c(C)cccc1C	32	-25*	-12*	-2.3*	-12	12	12	11	4.4	0.0
Cc1onc(-c2ccccc2Cl)c1C(=O)NCCCN1CCOCC1	9	/	/	/	-6	9	-2	6	0.8	0.1
Cc1cccc(N2CCN(C(=O)c3cccc(N4CCCC4=O)c3)CC2)c1C	8	-15	-19	-1.4	-5	-30	-3	1	-5.0	-1.4
Cc1oc(-c2ccc(F)cc2)nc1CN(Cc1ccccn1)CC1CCCO1 (centres undefined)	1	-11	-13	3.1	-3	-9	-5	-8	-2.5	0.1
COc1ccc(Cl)cc1C(=O)Nn1c(C)nc2ccccc2c1=O	-3	/	/	/	-8	-17	-2	-10	-5.5	-0.2
Cc1cc(C)c2nc(N3CCCN(C(=O)c4ccco4)CC3)c(C#N)cc2c1	-10	/	/	/	63	-1	-7	4	5.6	-0.5
COc1ccc(Br)cc1CN(C)C(=O)c1ccc2c(c1)NC(=O)C(C)S2 (centres undefined)	16	7	3	1.4	-3	2	-7	?	3.9	0.0
O=C(NNC(=O)c1ccc([N+](=O)[O-])o1)c1ccccc1	58*	/	/	/	-16	28	-15	33	0.3	0.2
O=C(CCl)NN=C(c1ccccc1)c1ccccc1	-22	13	16	0.3	94*	19	-5	-6	4.9	0.7
Cc1cc(=O)[nH]c(N2CCCNCC2)n1	-5	13	4	3.4	2	-4	13	1	3.8	-1.0
O=C(CN1CCOCC1)Nc1c(Cl)cc(Cl)cc1Cl	2	25	20	1.7	-7	4	-1	12	-4.8	0.0
CCCCC(=O)Nc1c2c(nn1-c1cccc(C)c1C)CS(=O)(=O)C2	-9	1	3	-7.7	5	4	-4	20	-7.7	-0.4
C/C(=N\NC(=O)Cn1c(C)nc2ccccc21)c1cccs1	-11	/	/	/	-2	-4	1	31	2.0	0.3
CCOC(=O)N1CCN(CCC(=O)Nc2ccccc2)CC1	-3	19	22	3.5	-6	4	-3	1	0.8	0.0
O=C(CCC(=O)c1ccccc1)Nc1cccnc1	-10	/	/	/	-9	2	-4	-3	0.2	0.7
CC1CCN(C(=O)CSc2nc3c(cnn3-c3ccccc3)c(=O)[nH]2)CC1	9	4	2	17	41	19	10	1	-1.4	-0.1
OCCc1ccc(-c2ccc(Cl)cc2)o1	-6	/	/	/	17	4	-2	-21	-2.3	-0.1
COc1ccc(S(=O)(=O)Cc2ccc(C(=O)NCc3ccccn3)o2)cc1	-4	9	10	1.7	/	0	-6	4	2.5	0.5
Cc1cc(CNC(=O)COC(=O)C2CC3CCCC(C2)C3=O)cc(C)c1O (centres undefined)	/	3	-1	-2.2	37	1	11	/	-0.3	0.5
SMILES	T cruzi inh	rRNA inh HTS	rRNA inh HTS OD600	rRNA inh HTS RFP	ALR H2O2 inh	Beta2AR agonist	Beta cell apopt	Calb FLC	LANA-H2A inh	A1 inh
CCc1cccc(C)c1NC(=S)NCC1CCN(c2ccc(OC)cc2)C1 (centres undefined)	54	-13	-4	9.3	40	13	14	-7	-4.1	1.6
O=C(COc1ccc2c(c1)OCO2)Nc1nncs1	-11	1	2	0.0	-10	0	-4	5	-0.2	0.5
CCN(C(=O)CSc1cc(C)c2ccccc2n1)c1c(N)n(Cc2ccccc2)c(=O)[nH]c1=O	4	13	12	1.2	-2	-5	-2	12	-1.7	-0.6
CCN(CC)CC#CCC(O)(c1ccccc1)C1CCCCC1 (centres undefined)	32	-11	-14	2.9	1	3	-3	-16	0.0	-0.2
Cc1nc(C(=O)NCC(=O)c2ccc(Cl)cc2)c(C(F)(F)F)o1	5	4	1	1.4	-3	0	-2	-9	0.8	0.6
Fc1ccc(-[n+]2nc(Nc3ccccc3)sc2-c2c(Cl)cccc2Cl)cc1	42	-41	-63	-15	-16	-2	2	-3	3.9	0.5
O=c1[nH]c(Nc2ccc3c(c2)OCCO3)nnc1Cc1ccccc1	-7	17	15	-1.8	-17	0	/	120*	-0.4	0.8
CCN(CC(=O)Nc1ccc2c(c1)OCCO2)C(=O)CN1C(=O)NC(C)(c2ccc(C)cc2)C1=O (centres undefined)	/	/	/	/	-4	2	2	/	-29	0.2
CC(C)C(c1nnnn1Cc1ccc2c(c1)OCO2)N1CCN(C)CC1 (centres undefined)	40	/	/	/	/	0	0	4	-2.2	0.3
Cc1nc(NC(=O)c2ccccc2[N+](=O)[O-])sc1C(=O)N(C)C	10	/	/	/	-22	2	-7	-6	1.8	0.2
N#CC(Nc1ccccc1)c1ccccc1OCc1ccccc1 (centres undefined)	-9	/	/	/	-4	-1	-9	0	-4.1	-0.2
O=C(O)CSCC(=O)N1CCN(c2ccnc3cc(Cl)ccc23)CC1	2	/	/	/	-3	-5	-4	2	-1.8	0.5
CCC(C(=O)O/N=C(\N)c1cccc(C)c1)c1ccccc1 (centres undefined)	22	/	/	/	23	-3	0	-6	-0.3	-0.5
COc1cccc(C(C(=O)NC(C)(C)C)N(C(=O)CCC(=O)Nc2cc(C)on2)C(C)C)c1OC (centres undefined)	0	/	/	/	/	-1	4	-12	-0.7	0.6
CN1C(=O)C(C)(C)c2cc(S(=O)(=O)N3CCCC3C(=O)NCc3ccccc3Cl)ccc21 (centres undefined)	3	2	-3	0.1	-2	-4	-1	-1	-7.0	-0.8
CC(NC(=O)c1ccco1)c1ccc(-n2ccnc2)cc1 (centres undefined)	-5	0	4	-2.4	6	-1	-1	8	-2.9	-0.1
Cc1ccc(C(=O)C(C)OC(=O)Cc2n[nH]c(=O)c3ccccc23)cc1 (centres undefined)	-1	-5	-7	0.0	7	2	4	11	-6.7	0.5
O=C(OC1CCCCC1)c1cc2ccccc2oc1=O	-3	-3	-1	2.4	0	-3	/	-7	-3.8	-0.7
O=C(C1=C[C@H](c2ccc3c(c2)OCO3)C[C@H](OCc2ccc(CO)cc2)O1)N1CCOCC1	15	-1	1	5.6	-9	-3	1	-3	1.8	0.9
CCOP(=O)(OCC)C(C#N)=C1SCN(c2ccccc2)CS1	9	/	/	/	99*	-2	2	3	-3.1	-0.1
CCCOC(=O)C1=C(C)NC2=C(C(=O)CC(C)(C)C2)C1c1cccnc1 (centres undefined)	40	/	/	/	-1	-13	-11	-7	-6.7	-0.3

Compound activity as filed in PubChem BioAssay.
